# NPYLR7 ag: agonists of mosquito NPYLR7 receptor, primary screen, cell-based, Aedes aegypti, calcium fluorescence, mosquito biting behavior | activation, % at 10 µM | HEK293T NPYLR7/Galpha15, GCaMP6s calcium fluorescence | AID 1259423, 2018 | 0.15% of 270,000 active; in the data active = activation above about 40%;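 also: 0% = vehicle and 100% = reference agonist at the receptor; some compounds past the cut are filed as inactive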
# NPYLR7 ag max-min: also measured in NPYLR7 ag; calls as there; activation, %; measured here: Max-Min RFU normalised activation; some inactives read as strong as hits;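 span of the calcium signal over five minutes; 0% = vehicle and 100% = native peptide agonist; compound fluorescence can raise it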
# The depositor's hits bear a star; & = joins results of further samples.
molecule | NPYLR7 ag | NPYLR7 ag max-min
CCCN1CC23C=CC(O2)C(C(=O)O)C3C1=O (stereo unspecified) | 6 | 4
COc1cc2c(cc1OC)CN(C(=O)c1cn(CCCc3ccccc3)nn1)CC2 | -4 | -4
CN1C(=O)N(Cc2ccccc2)C(=O)C12CCN(Cc1nc3ccccc3s1)CC2 | 13 | 2
COc1cccc(C(=O)N/N=c2\oc3ccccc3cc2-c2nc3ccccc3[nH]2)c1 | -9 | -15
COc1ccc(-c2c(NC(=O)c3ccc(C)cc3)oc3ccccc3c2=O)cc1OC | -3 | -3
O=c1[nH]c(O)c(C=Nc2ccc(Br)cc2)c(=O)[nH]1 | 7 | 4
CN(CC(=O)Nc1cccc2ccccc12)C(=O)COc1ccc(Br)cc1 | 0 | -2
COc1ccc(N2C(=O)CN(CCC3=CCCCC3)C3CS(=O)(=O)CC32)cc1 (stereo unspecified) | 1 | 2
CC1CCN(C(=O)N2CCN(S(=O)(=O)N3CCCCC3)CC2)CC1 | 7 | 5
CCCCN(CC(=O)N1c2ccccc2-n2cccc2C1c1cccc(C)c1)C(=O)Nc1c(Cl)cccc1Cl (stereo unspecified) | 0 | 4
C=CCN1C(=O)[C@@H]2CN(S(=O)(=O)c3ccc(F)cc3)CCN2C1=O | -11 | -18
COc1ccc(-n2nnc(C(=O)N(C)C3CCS(=O)(=O)C3)c2C)cc1 (stereo unspecified) | 7 | 6
O=C(Nc1nnc(-c2ccncc2)s1)c1ccc2c(c1)OCO2 | 0 | 1
CC1(C)CC(CCNC(=O)C2=NNC(=O)CC2)(c2ccccc2)CCO1 (stereo unspecified) | 1 | 0
c1nc2nc3c(c(NCc4ccc5c(c4)OCO5)n2n1)CCCC3 | 5 | 0
CCC(C)(C)OCC(O)CNCC(C)C (stereo unspecified) | -7 | -9
CCCOc1cccc(C2CC(=O)Nc3c2c(C)nn3-c2ccc(Cl)nn2)c1 (stereo unspecified) | -3 | -4
COCCN(CC(=O)N(Cc1cccn1Cc1ccc(F)cc1)C1CCCCC1)C(=O)CCl | 11 | 14
COc1cccc(/C=C2\C(=O)N(c3ccccc3)N=C2C)c1O | 1 | -10
COCCNC(=O)C(C)n1c(=O)n(-c2cccc(C(F)(F)F)c2)c(=O)c2ccccc21 (stereo unspecified) | 1 | 4
CCOC(=O)Cn1c(=O)c2c(nc3n(-c4ccc(CC)cc4)c(C)c(C)n23)n(C)c1=O | 2 | 1
CCOc1ccccc1NC(=O)CC(=O)N1[C@H](C)CCC[C@@H]1C | 2 | -1
CCN1C(=O)N(Cc2cccc(OC)c2)C(=O)C12CCN(C1CCSC1)CC2 (stereo unspecified) | 8 | -2
N#CC1C(=N)Oc2nc[nH]c(=O)c2C1c1ccncc1 (stereo unspecified) | 11 | 4
Cc1ccc(-c2nc3sccn3c2CN2CCN3C(=O)CNC(=O)C3C2)cc1 (stereo unspecified) | 13 | -5
Cc1cccn2c(=O)cc(OCC(=O)NCc3ccc(S(N)(=O)=O)cc3)nc12 | -6 | -3
CC1CN(C(=O)OC(C)(C)C)CC(C)N1C(=O)c1ccc[nH]1 (stereo unspecified) | -23 | -24
C(=NNc1ccc2ccccc2n1)C1=C(N2CCOCC2)C(=Cc2ccccc2)CC1 | 8 | 12
CCOCCn1c(=NC(=O)c2ccc(S(C)(=O)=O)cc2)sc2cc(OC)ccc21 | 14 | 10
c1ccc(-c2cnnc(N3CCN(c4cnccn4)CC3)n2)cc1 | 4&2 | 3&-1
CCOC(=O)C1(C)CCCN1C(=O)c1cc(F)ccc1C (stereo unspecified) | -3 | -7
C#CC(CC)(CC)NC(=O)Cc1cccc(C)c1 | 12 | 4
CC(C)(Oc1ccc(Cl)cc1)C(=O)Nc1c2c(nn1CC(=O)NCc1ccccc1)CSC2 | -3 | 3
COC(C(=O)N1CCC(n2nccc2NC(=O)Nc2cccc(F)c2)CC1)c1ccccc1 (stereo unspecified) | -11 | -13
CCn1nnc2c(=O)n(CC(=O)Nc3ccccc3)cnc21 | 0 | 23
O=C1OCCN1CCNCc1ccccc1OCC(O)CN1CCc2ccccc2C1 (stereo unspecified) | 8 | 4
COc1c(Cl)cc(C(=O)NCCn2cccc2)cc1Cl | 4 | 1
CC(C)(C)C1CCc2c(sc(NC(=O)CSc3nnnn3C3CC3)c2C#N)C1 (stereo unspecified) | 8 | 6
O=C(Nc1nnc(SCC(=O)N2CCc3ccccc32)s1)c1ccco1 | 7 | 10
CN(C(=O)c1ccccc1-c1ncc[nH]1)C1Cc2ccccc2C1 | -3 | -2

# Fetched by compound from above:
molecule | NPYLR7 ag | NPYLR7 ag max-min
c1ccc(-c2cnnc(N3CCN(c4cnccn4)CC3)n2)cc1 | 4&2 | 3&-1
COC(C(=O)N1CCC(n2nccc2NC(=O)Nc2cccc(F)c2)CC1)c1ccccc1 (stereo unspecified) | -11 | -13

# (next part)
molecule | NPYLR7 ag | NPYLR7 ag max-min
CC(NC(=O)N1CCN(S(=O)(=O)c2ccccc2F)CC1)c1ccc2c(c1)OCCO2 (stereo unspecified) | 3 | -3
O=C(NCCc1c[nH]c2ccccc12)c1ccccc1C1CCNC1 (stereo unspecified) | 5 | 2
COCCC(=O)N1CCCC(CCc2ccccc2C(F)(F)F)C1 (stereo unspecified) | 2 | -1
CCOC(=O)c1nn(CCC(F)(F)F)c2c1CN(C(=O)c1cncs1)CC2 | 19 | 11
Cc1ccccc1NC(=O)c1c(NC(=O)C(C)Oc2cccc(Cl)c2)sc2c1CCCC2 (stereo unspecified) | 28 | 16
Cc1nc2ncnn2c(NCc2cccs2)c1Cc1ccccc1 | 12 | 1
Cc1ccn2c(NC(=O)CCC3CCCC3)c(-c3cccc(Cl)c3)nc2c1 | -3 | -3
CN(C)c1ccc(/C=N\Nc2nc(-c3cc4ccccc4oc3=O)cs2)cc1 | 21 | -5
Cc1ccc(-c2nc(C)c(C(=O)NCCCC(=O)O)s2)o1 | 12 | 9
c1ccc2c(c1)sc1c(C3NCCc4[nH]cnc43)cccc12 (stereo unspecified) | 6 | 3
O=C(Nc1nnc(SCc2ccc(Cl)cc2Cl)s1)c1ccccc1F | -6 | -12
CC1CN(S(=O)(=O)CCNC(=O)Nc2ccc(-c3nncn3C)cc2)CC(C)O1 (stereo unspecified) | 1 | 11
O=C(N1CCCCC1C1OCCO1)C12CC3CC(CC(C3)C1)C2 (stereo unspecified) | -3 | -4
COC(=O)c1ccccc1NC(=O)c1nnn(-c2ccccc2)c1C | -7 | -10
CN(Cc1nc2ccc(F)cc2[nH]1)C(=O)c1onc2ccccc12 | 14 | 3
Cc1ccc(-c2ccnc(NC3CCCN(C(=O)c4ccco4)C3)n2)c(C)n1 (stereo unspecified) | -3 | -2
CCOC(C#CCN(CC)CC)(c1ccccc1)c1ccccc1 | -8 | -10
COc1ccc(CN(C)c2nccc(-c3ccc(C)nc3C)n2)cc1O | -10 | -13
Cc1ccc(S(=O)(=O)NCC(=O)OCC(=O)N2CCCc3ccccc32)cc1C | 1 | 17
CCc1nnc(-c2cc3ccccc3n2CC(=O)NC)o1 | -4 | -5

# Some of the entries above in a different format.
# Under each structure: NPYLR7 ag	NPYLR7 ag max-min
COc1ccc(CN(C)c2nccc(-c3ccc(C)nc3C)n2)cc1O
  -10	-13
COC(=O)c1ccccc1NC(=O)c1nnn(-c2ccccc2)c1C
  -7	-10
O=C(Nc1nnc(SCc2ccc(Cl)cc2Cl)s1)c1ccccc1F
  -6	-12
CC(NC(=O)N1CCN(S(=O)(=O)c2ccccc2F)CC1)c1ccc2c(c1)OCCO2 (stereo unspecified)
  3	-3

# Continuation:
molecule | NPYLR7 ag | NPYLR7 ag max-min
S=c1n(CN(Cc2ccncc2)C2CC2)cc2ccccn12 | 10 | 3
Cc1ncc(CN2CCC(Cc3n[nH]c(=O)n3-c3ccccc3)CC2)cn1 | 2 | 1
O=C(Nc1nnc(-c2cccs2)s1)c1ccccc1F | -5 | -8
NC(=O)CN(c1ccccc1)S(=O)(=O)c1ccccc1F | -16 | -18
Cc1cc(N2CCC3(CCCO3)CC2)c2ccccc2n1 | 6 | 1
Cc1cnccc1NCCNC(=O)c1cccc(CC2CCNCC2)c1 | -5 | -12
CCOc1ccc(N2CCn3c2nnc(C(=O)NCC(C)C)c3=O)cc1 | 11 | 7
CCNC(=O)[C@@H]1C[C@H](N)CN1C1CCN(c2ccccc2OC)CC1 | -1 | -2
COc1ccc(OC)c(-c2nc(C(N)=O)c3[nH]c(=O)n(-c4ccc(C(C)(C)C)cc4)c3n2)c1 | -3 | -3
CCCCCc1nc2ccc(Cl)cn2c1NCc1ccccc1 | -3 | -6
Cc1ccccc1C(=O)NCCc1csc2nc(-c3cccs3)nn12 | 1 | 0
CC(C)c1nc2c(n1C)CCN(C1CCOC1=O)C2 (stereo unspecified) | 3 | 0
O=C(CSc1nnc(NC(=O)c2ccccc2)s1)Nc1ccc(Br)cc1 | -9 | -14
CCOC(=O)N1CCC(N2CCOC(CCc3ccccc3)C2)CC1 (stereo unspecified) | 12 | 11
OC(CNC1CCC2(CCNCC2)CC1)c1ccccc1Cl (stereo unspecified) | 15 | 12
COc1ccccc1C(C#N)c1cc(N2CCN(C(=O)C(C)ON=C(C)C)CC2)ncn1 (stereo unspecified) | 0 | -1
O=C(O)C[C@@H]1NC(=O)[C@H](Cc2ccccc2)NC1=O | 3 | 0
CN(C(=O)CSc1ncnc2sccc12)C(c1ccccc1)c1ccccc1 | 3 | 4
CC1(Cc2ccc3c(c2)OCO3)C(=O)Nc2cc(-c3ccccc3Cl)ccc21 (stereo unspecified) | 6 | 4
CS(=O)(=O)c1ccc(Nc2nc(CC(=O)NCCc3ccccc3)cs2)cc1 | -5 | -6
COc1ccc(Cl)cc1Cn1c(C)c(C(=O)N(C)Cc2ccc(F)cc2)sc1=O | -6 | -2
NC(=O)C1CCN(c2nc3c(S(=O)(=O)c4cccc(Cl)c4)nnn3c3ccsc23)CC1 | -1 | -6
Cc1cc(C)cc(C(=O)Nc2cc(=O)n(C)c(=O)n2C)c1 | 6 | 8
O=C1CCC2c3[nH]c4ccccc4c3C(c3ccccc3)CN12 (stereo unspecified) | 5 | 5
CN(C(=O)C1CC(=O)N(c2cccc(Br)c2)C1)C1CCS(=O)(=O)C1 (stereo unspecified) | 2 | 1
c1cncc(COC2CCCN(Cc3ccncc3)C2)c1 (stereo unspecified) | -4 | -5
Cc1cc(-c2nc3cc(Cl)ccc3o2)ccc1N | 0 | 1
O=C(NCC(F)(F)F)c1cc(-c2ccccc2Cl)n[nH]1 | -1 | -3
Fc1ccc(CNc2ncnc3c2cnn3-c2ccc(F)cc2)cc1 | 7 | 4
Cc1cc(C)c(S(=O)(=O)N2CCCC2C(=O)NC2CC2)c(C)c1 (stereo unspecified) | -1 | 0
O=C(c1cc(F)c(F)cc1F)N1CCN(c2nccc(-c3ccc4c(c3)OCO4)n2)CC1 | 7 | 9
Cc1ccccc1C(=O)Nc1c2c(nn1C(C)(C)C)CSC2 | -7 | -9
CCN(CC)C(=O)Oc1ccc2c(ccn2Cc2cccc(C)c2)c1NC(=O)c1ccncc1 | 0 | 7
CCOc1ccc(C(NS(=O)(=O)c2ccc(OC)c(OC)c2)C(C)C)cc1OCC (stereo unspecified) | -9 | -11
COCCN(Cc1c(-c2ccccc2)noc1N1CCSCC1)C(=O)C1CCCC1 | 16 | 15
CC(Oc1cccc(C#N)c1)C(=O)N1CCC(Oc2ccccc2Cl)C1 (stereo unspecified) | 7 | 3
C=CCn1c(SCC(=O)NC(=O)NC)nc2sc3c(c2c1=O)CCC(C)C3 (stereo unspecified) | 1 | 1
Brc1ccc(-c2nc(-c3cccnc3)no2)o1 | 1 | 0
Cc1cn2cc(CNC(=O)c3cc(COc4ccc5c(c4)CCCC5)on3)nc2s1 | 17 | 1
CC(C)CN1C(=O)CC(=O)NC1SC(C(=O)N(C)C)c1ccccc1 (stereo unspecified) | 14 | 8
O=C(c1c(F)c(F)cc(F)c1F)N1CCC(Cc2ccc(C(F)(F)F)cc2)CC1 | 2 | 9
O=C(Cn1c(-c2ccccc2)noc1=O)NC(=O)NCc1cccs1 | 6 | 4
Cc1ccc(C(=O)NCCc2nnc3ccc(SCC(=O)NCCc4ccccc4)nn23)cc1 | -3 | -9
CCC(C)=C(C(=O)OC)C(=O)OC | -13 | -20
C=CCOCC(O)CN(CCOC)Cc1c(-c2ccccc2)noc1N1CCSCC1 (stereo unspecified) | -8 | 3
Cc1ccc2c(c1)N(C)C(=O)c1cc(NS(=O)(=O)Cc3ccccc3)ccc1O2 | 9 | 4
CCC(=O)Nc1cc(Cl)ccc1C(=O)N(C)Cc1noc(CC)n1 | 9 | -2
COc1ccc(NC(=O)C2CC(=O)N(C)C(=Nc3ccc(F)cc3)S2)cc1 (stereo unspecified) | 2 | -1
CCn1cnnc1SC(C)C(=O)Nc1ccc(F)cc1 (stereo unspecified) | 3 | -1
O=C(NCCn1ncc2c(=O)n(Cc3cccc(F)c3)cnc21)c1ccc(Br)o1 | -4 | -8
CC(=O)N1CCN(C(=O)Nc2c[nH]c3ccccc23)CC1 | 2 | -5
CCOC(=O)NC(=O)CN(CC)C(=S)NC1CCCCC1 | 2 | 9
COc1ccccc1OCC1CN(C(=O)C2CCC(N(Cc3ccc(Br)cc3F)C(=O)OC(C)(C)C)CC2)CCO1 (stereo unspecified) | 5 | 3
Cc1ccc(Nc2nc(N3CCOCC3)nc3[nH]ncc23)cc1 | 2 | -1
Cc1ccc(C2(O)CCN(C(=O)c3noc(C)c3CO)CC2)nc1 | 7 | 7

# Whole records, quoted from the list. Order of values: NPYLR7 ag | NPYLR7 ag max-min
# Shown for COc1c(Cl)cc(C(=O)NCCn2cccc2)cc1Cl : 4 | 1
# Shown for CN(CC(=O)Nc1cccc2ccccc12)C(=O)COc1ccc(Br)cc1 : 0 | -2
# Shown for COc1ccc(CN(C)c2nccc(-c3ccc(C)nc3C)n2)cc1O : -10 | -13
# Shown for O=C(Nc1nnc(-c2cccs2)s1)c1ccccc1F : -5 | -8
# Shown for CC1CCN(C(=O)N2CCN(S(=O)(=O)N3CCCCC3)CC2)CC1 : 7 | 5

# Assay outcomes from PubChem BioAssay.

# The list is partial. The share of hits here may be higher or lower than overall.
